# Source: PubChem (Johns Hopkins Ion Channel Center)
# KCNQ2 pot = potentiators of rat KCNQ2 potassium channel. Potassium voltage-gated channel subfamily KQT member 2 (Rattus norvegicus), O88943. CHO-K1 KCNQ2, FluxOR thallium flux fluorescence; hits give high values. B-score at 10 µM. 310,000 tested, 0.54% active;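 active = fluorescence ratio B-score at least 3 SD of library B-scores, with initial fluorescence B-score within 3 SD, cut at about 5.3 in these data; same plate scores as AID 2156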;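 note: B-score of peak minus minimum over baseline fluorescence ratio after K+ and Tl+ stimulus; positive B-score means potentiation of KCNQ2 with more thallium influx and brighter signal; only the inactives scoring about 0 or higher are listed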
# Target sequence (O88943 whole entry, looked up): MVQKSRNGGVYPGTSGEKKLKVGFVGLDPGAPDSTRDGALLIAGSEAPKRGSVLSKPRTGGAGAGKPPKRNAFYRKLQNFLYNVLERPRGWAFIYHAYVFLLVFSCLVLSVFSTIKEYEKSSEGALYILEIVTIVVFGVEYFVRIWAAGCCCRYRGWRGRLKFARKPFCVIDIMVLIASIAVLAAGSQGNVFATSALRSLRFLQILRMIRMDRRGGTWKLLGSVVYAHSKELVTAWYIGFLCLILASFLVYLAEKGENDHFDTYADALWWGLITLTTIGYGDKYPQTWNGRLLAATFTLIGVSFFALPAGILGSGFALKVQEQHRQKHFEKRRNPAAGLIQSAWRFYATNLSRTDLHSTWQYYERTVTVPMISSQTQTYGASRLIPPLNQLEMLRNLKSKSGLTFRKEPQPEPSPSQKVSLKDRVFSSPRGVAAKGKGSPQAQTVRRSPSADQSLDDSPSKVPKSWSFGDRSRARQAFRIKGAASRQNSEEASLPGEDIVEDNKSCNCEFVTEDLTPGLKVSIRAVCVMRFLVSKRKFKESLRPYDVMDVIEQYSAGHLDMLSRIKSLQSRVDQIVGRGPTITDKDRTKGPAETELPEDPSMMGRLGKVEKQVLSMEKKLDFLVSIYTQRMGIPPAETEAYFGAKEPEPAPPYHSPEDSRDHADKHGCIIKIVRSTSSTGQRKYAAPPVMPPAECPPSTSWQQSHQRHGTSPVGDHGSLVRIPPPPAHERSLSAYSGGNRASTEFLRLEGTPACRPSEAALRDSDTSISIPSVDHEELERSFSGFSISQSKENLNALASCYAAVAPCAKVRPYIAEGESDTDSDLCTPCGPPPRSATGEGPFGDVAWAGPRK
# KCNQ2 pot baseline = second read-out of KCNQ2 pot, no call of its own (marks repeat the call); B-score; compound at 10 µM; measured here: initial fluorescence intensity artifact check;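 brightness before thallium and not channel activity; 0 = typical well and far values either way flag optical interference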
# * marks the source's active call; other numbers are inactive results.
SMILES,KCNQ2 pot,KCNQ2 pot baseline
CCOc1ccc(N2C(=O)CC(NCCc3ccc(S(N)(=O)=O)cc3)C2=O)cc1 (stereo not drawn),1.8,-0.27
COc1ccc(CCN2CC(C(=O)NCCc3ccccn3)CCC2=O)cc1 (stereo not drawn),0.07,0.44
C#CCOc1c(Cl)cc(/C=N/NC(N)=S)cc1OCC,0.55,-2.2
Cc1ccc(CCNC(=O)c2cccc(NC3=NC4CS(=O)(=O)CC4S3)c2)cc1 (stereo not drawn),0.69,0.15
CCc1cccc(N(C)C(N)=Nc2cccc3ccccc23)c1,1.3,1.9
Cc1cc(Cl)ccc1OCC(=O)N/N=C/c1ccncc1,0.55,-0.14
CO/N=C(\N)c1nonc1N,0.55,0.12
CC(=O)c1ccc(-n2nnnc2SCC(=O)Nc2sc(C)c(C)c2C#N)cc1,0.65,-0.07
CCCS(=O)(=O)N1CCN(C(=O)c2cc(OC)cc(OC)c2)CC1,1.4,0.45
CC1CCCC(C(=O)O)N1C(=O)CCS (stereo not drawn),0.89,-0.79
CC1=C(C(=O)NC2CCCc3c2cnn3-c2cc(F)cc(F)c2)OCCO1 (stereo not drawn),0.99,0.33
O=C(Nc1ccc2c(c1)CCC2)c1cccs1,1.6,-1.1
O=C(Nc1ccc2c(c1)OCO2)c1cc(-c2ccc(O)cc2)on1,0.03,1.7
COc1ccc(NC(=O)CN2CCCC2)cc1,0.03,-0.19
COc1ccc2[nH]cc(C(=O)CN3CCCC(C)(C)C3)c2c1,2.8,-0.68
CC(C)=CCCC1=CCC2C(=O)NNC(=O)C2C1 (stereo not drawn),0.03,0.5
CC1(C)C(=O)C2(CCCCC2)C(=O)OC1c1cccs1 (stereo not drawn),1.9,0.74
CC(NC(=O)CN1C(=O)NC(C)(c2cccc3ccccc23)C1=O)c1ccccc1 (stereo not drawn),0.67,0.3
Cc1sc2ncn(CC(=O)N3CCN(c4ccc(F)cc4)CC3)c(=O)c2c1S(=O)(=O)N1CCOCC1,0.01,-1.7
O=C(COc1ccc(S(=O)(=O)Nc2ccccc2)cc1)NCc1cccnc1,0.72,0.43
Cc1ccc(CCN2CC(C(=O)NCCN3CCOCC3)CC2=O)cc1 (stereo not drawn),0.15,-0.09
CC(=O)NS(=O)(=O)c1ccc(NC(=S)NC(=O)C(C)C)cc1,1.7,1.5
COc1ccc(CN(CCN(C)C)Cc2ccccc2)c(OC)c1,1.4,-1.5
Cc1cc(NC(=O)c2ccc3nc(C)sc3c2)no1,0.11,1.1
CCOC(=O)c1c(N2C(=O)CC(Sc3ccccc3C(=O)O)C2=O)sc2c1CCCC2 (stereo not drawn),0.45,-0.26
Cc1ccc(NC(=S)Nc2cccc(-c3n[nH]c(=S)o3)c2)cc1,1.2,0.64
O=C(COC(=O)c1nc(Cl)ccc1Cl)NCc1ccccc1,1.4,-0.54
Cc1ccc(S(=O)(=O)NCC(=O)NCC(=O)N2CCN(c3ncccn3)CC2)cc1C,0.05,0.24
O=C(Cn1ncc(N2CCCC2)c(Cl)c1=O)c1ccc(Cl)cc1,0.59,0.49
Fc1ccccc1C1c2[nH]c3ccccc3c2CCN1CCCn1cccn1 (stereo not drawn),1.2,1.4

# Sorted by molecular weight (largest number first): part of the list above.
SMILES,KCNQ2 pot,KCNQ2 pot baseline
Cc1sc2ncn(CC(=O)N3CCN(c4ccc(F)cc4)CC3)c(=O)c2c1S(=O)(=O)N1CCOCC1,0.01,-1.7
CCOC(=O)c1c(N2C(=O)CC(Sc3ccccc3C(=O)O)C2=O)sc2c1CCCC2 (stereo not drawn),0.45,-0.26
Cc1ccc(S(=O)(=O)NCC(=O)NCC(=O)N2CCN(c3ncccn3)CC2)cc1C,0.05,0.24
O=C(COc1ccc(S(=O)(=O)Nc2ccccc2)cc1)NCc1cccnc1,0.72,0.43
Cc1ccc(CCN2CC(C(=O)NCCN3CCOCC3)CC2=O)cc1 (stereo not drawn),0.15,-0.09
O=C(Cn1ncc(N2CCCC2)c(Cl)c1=O)c1ccc(Cl)cc1,0.59,0.49
CC(=O)NS(=O)(=O)c1ccc(NC(=S)NC(=O)C(C)C)cc1,1.7,1.5
Cc1ccc(NC(=S)Nc2cccc(-c3n[nH]c(=S)o3)c2)cc1,1.2,0.64
O=C(COC(=O)c1nc(Cl)ccc1Cl)NCc1ccccc1,1.4,-0.54
COc1ccc2[nH]cc(C(=O)CN3CCCC(C)(C)C3)c2c1,2.8,-0.68
CC1(C)C(=O)C2(CCCCC2)C(=O)OC1c1cccs1 (stereo not drawn),1.9,0.74
Cc1cc(NC(=O)c2ccc3nc(C)sc3c2)no1,0.11,1.1
CC(C)=CCCC1=CCC2C(=O)NNC(=O)C2C1 (stereo not drawn),0.03,0.5
COc1ccc(NC(=O)CN2CCCC2)cc1,0.03,-0.19

# Additional structures follow.
SMILES,KCNQ2 pot,KCNQ2 pot baseline
OC1(c2cccc(C(F)(F)F)c2)CCNCC1,0.35,-0.69
COc1ccccc1NC(=S)NNC(=O)c1c(Cl)c(C)nn1C,0.84,0.87
CN(C)S(=O)(=O)c1cccc(-c2cn3cc(Cl)ccc3n2)c1,1.6,-0.09
Cc1ccc(NC(=O)Cn2c(O)c(N=NC(N)=S)c3ccccc32)cc1,1.2,0.4
O=C(O)/C=C/C(=O)N1CCN(S(=O)(=O)c2cc(C(F)(F)F)ccc2Cl)CC1,0.11,0.43
CC(C)C(=O)Nc1cccc(NC(=S)NC(=O)c2ccc3c(c2)OCO3)c1,0.77,-0.06
O=C(CCCc1nc(-c2ccccc2Cl)no1)N1CCOCC1,0.77,0.22
CCc1ccccc1NC(=S)N(CCCN(C)C)Cc1cc2cc3c(cc2[nH]c1=O)OCO3,0.81,0.43
O=C(c1ccc(S(=O)(=O)N2CCCCCC2)cc1)N1CCCC(C(F)(F)F)C1 (stereo not drawn),0.39,-0.02
Cc1cnc(-c2nnc(N(C)C(=O)C3CCOC3)s2)cn1 (stereo not drawn),1.3,-0.6
CCCOc1ccc(C(=O)NCC(c2ccco2)N(C)C)cc1 (stereo not drawn),0.03,0.89
CC(=O)NCCC(=O)N1CCc2c([nH]c3ccccc23)C1c1cccc(Cl)c1 (stereo not drawn),0.26,-1
Cc1ccc(NC(=O)CSc2ccc3nnc(CCNC(=O)c4ccccc4)n3n2)c(C)c1,0.05,-0.58
Fc1ccc2nc(Nc3nc4cc5c(cc4s3)OCO5)sc2c1,1.8,0.57
Nc1ccccc1Sc1ccccc1[N+](=O)[O-],0.91,0.23
CN1C(=O)C(O)(C2COC(C)(C)CC2=O)c2cc(Br)ccc21 (stereo not drawn),0.15,0.09
COc1ccc2oc(C(=O)N3CCN(c4ncccn4)CC3)c(C)c2c1,0.12,0.02
CC1CCN(S(=O)(=O)c2ccc(NC(=O)C3CCN(C(=O)c4ccco4)CC3)cc2)CC1,0.14,1.5
O=C(Nn1cnnc1)c1cc(-c2cccc(Br)c2)nc2ccccc12,0.04,-2.5
CN(C(=O)COC(=O)c1nn(C)c(=O)c2ccccc12)c1c(N)n(Cc2ccccc2)c(=O)[nH]c1=O,0.22,1.3
O=C(O)CN1C(=O)/C(=C\c2cccc(OCc3ccccc3)c2)SC1=S,0.36,-0.26
COc1ccc(CCn2c(=S)[nH]c3ccc(N4CCOCC4)cc3c2=O)cc1OC,0.16,0.01
Cc1cnc(NC(=O)C(C)N2C(=O)C3CC=CCC3C2=O)s1 (stereo not drawn),0.3,-0.22
NS(=O)(=O)c1ccc(NCc2cc(Cl)ccc2OCc2ccc(F)cc2)cc1,7.7*,1.4*
Cc1cc(/C=C2/C(=N)N3C(=NC2=O)SN=C3S(C)(=O)=O)c(C)n1-c1ccccc1F,1.3,-1.6
O=[N+]([O-])c1ccc(SCCO)nc1SCCO,1.1,-1.6
COCCOC(=O)c1cc(C(=O)c2cc(F)ccc2O)coc1=N,0.44,-0.65
Cc1ccc(S(=O)(=O)N2CC=C(C(=O)NCCC(C)C)CC2)cc1,0.85,0.6
COc1ccccc1-c1nc(SCC(=O)O)n[nH]1,0.04,0.96
Cc1cc(NC(=O)CSc2nnc(C)n2-c2ccccc2)no1,3.3,-2.3
CC1CN(c2cc(=O)n(-c3cccc(Br)c3)c(=O)[nH]2)CC(C)O1 (stereo not drawn),0.64,-0.65
CCCCSc1nc(O)cc(=O)n1CC,1.8,2.4
N#Cc1nc(-c2ccc(OCc3ccc(Cl)cc3)cc2)oc1N1CCOCC1,1.1,0.05
COc1ccc(-c2nc[nH]c2[N+](=O)[O-])cc1,1.3,-0.06
Cc1ccc(NC(=O)CSc2sc3c(O)cc(=O)[nH]c3c2C#N)c(F)c1,2.6,-1.2
COCCNC(=O)CN1C(=O)NC(c2ccccc2)(c2ccccc2)C1=O,0.44,0.89
C/C(=N\NC(=O)c1cccnc1)c1cc2ccccc2o1,3,-0.9
CN(CC(=O)Nc1cccc(S(=O)(=O)N2CCOCC2)c1)CC(=O)Nc1ccc(Cl)c(C(F)(F)F)c1,0.03,-0.11
COc1ccc(C2=NN(CCC(=O)NC3CCC(C)CC3)C(=O)CC2)cc1 (stereo not drawn),1.8,0
CCCCCOC(=O)Cc1c(O)c2ccccc2[nH]c1=O,0.19,-0.21
COC(=O)c1cc(C)sc1NC(=O)C1C2C=CC(CC2)C1C(=O)O (stereo not drawn),0.68,-0.56
O=C(COC(=O)Cc1ccc(F)cc1)NC1CCS(=O)(=O)C1 (stereo not drawn),1.2,0.28
CN1CCN(CC(=O)N(Cc2c(C#N)c3ccccc3n2C)c2ccccc2)CC1,0.37,0.61
O=C(O)c1c2c(nc3ccccc13)/C(=C/c1ccc(O)cc1)CCC2,0.99,-0.98
CCC(=O)N(Cc1ccco1)c1nc(-c2cc(OC)ccc2OC)cs1,2.5,-0.7
Cc1cc(-c2ccccc2)nc(SCC(=O)N2CCCC2)n1,0.72,-1.3
CC(NC(=O)COC(=O)c1ccc(Cl)cc1O)c1ccc(F)cc1 (stereo not drawn),0.23,0.74
CSCCCNC(=S)Nc1cccc(S(=O)(=O)NC2=NCCC2)c1,0.48,-0.1
CC1CCCCN1C(C(=O)O)c1ccccc1 (stereo not drawn),1.1,-0.09
CCN(CC1CCCO1)C(=O)CCc1nnc(CCc2ccc(OC)cc2)o1 (stereo not drawn),0.15,-0.87
# More results
SMILES,KCNQ2 pot,KCNQ2 pot baseline
COc1cccc(/C=N/NC(=O)Cn2cnc3c2c(=O)n(C)c(=O)n3C)c1OC,0.01,-0.47
CN1C(=S)SC(N(O)C(=O)Nc2ccccc2)C1(C)C (stereo not drawn),0.35,0.5
Cc1oc(C(=O)O)cc1CSc1nnc(-c2ccccc2)n1C,0.01,0.89
Cc1ccc(-n2c(=O)[nH]c3c(C(N)=O)nc(CC(C)C)nc32)cc1,0.99,-1.7
Cc1cnc(CNC(=O)C2CCC(=O)N(CCc3ccc(Cl)cc3)C2)cn1 (stereo not drawn),1.2,0.09
CCC(=O)c1ccc(OCC(O)CNC(C)c2ccccc2)cc1 (stereo not drawn),0.04,-0.4
CC(C)OCCCN1CN(S(=O)(=O)c2cccc(Cl)c2)c2nc3ccccc3nc21,0.07,2.2
Cc1cc(C)n2nc(C(=O)OCC(=O)NC(=O)c3ccccc3)nc2n1,1.4,-0.23
Cc1c(N2C(=O)c3ccc4c5c(ccc(c35)C2=O)CC4)c(=O)n(-c2ccccc2)n1C,0.9,-0.31
CCC(=O)c1ccc(OCC(O)CN2CC(C)OC(C)C2)cc1 (stereo not drawn),0.42,0.64
COc1ccc(NC(=O)N(Cc2cc3cc(C)ccc3[nH]c2=O)CC2CCCO2)cc1 (stereo not drawn),0.52,-0.15
CC1(NC(=O)NCc2ccccc2)CCS(=O)(=O)C1 (stereo not drawn),0.02,-0.08
CCn1ncc(C2=NOC(C(=O)Nc3cnn(C45CC6CC(CC(C6)C4)C5)c3)C2)c1C (stereo not drawn),0.11,0.04
COC(C[C@H](O)[C@H](C)[C@@H](O)COCc1ccccc1)OC,0.53,0.76
CCc1ccccc1NC(=O)c1nnn(CC(=O)Nc2cccc(C)c2)c1N,2.4,0.5
CC1CCN(CC(=O)Nc2cccc([N+](=O)[O-])c2)CC1,0.09,1.6
CC(=O)N(C1=C(N)C(=O)c2ccccc2C1=O)c1ccccc1,2.7,0.33
COC(=O)c1cc(C(=O)Nc2ccc(C)cn2)cc([N+](=O)[O-])c1,0.5,0.2
COc1ccc(CCNC(=O)CCc2nnc(Cc3ccc4c(c3)OCO4)o2)c(OC)c1,1.5,0.75
Cc1cc(Cl)ccc1OC(C)C(=O)Nc1ccc(S(=O)(=O)N2CCOCC2)cc1 (stereo not drawn),0.56,-1.6
COCCCNC(=O)c1cn(CC(C)C)c(=O)c2c1c1ccccc1n2C,0.05,0.02
CC(=O)OC(C)CS(=O)(=O)c1ccccc1 (stereo not drawn),0.05,0.48
Cc1nc(SCC(=O)N2CC(=O)Nc3ccccc32)nc(C)c1C,1.8,-0.85
O=C(COc1ccc(S(=O)(=O)NCc2ccccc2)cc1Cl)N1CCOCC1,1.2,0.14
CCC(=O)N1CCc2cc(Br)cc(S(=O)(=O)NCCN3CCCCC3C)c21 (stereo not drawn),0.13,-2
COc1cccc(COC(=O)c2ccc3c(=O)n4c(nc3c2)CCC4)c1OC,2.4,-0.54
CCN(CC)S(=O)(=O)c1ccc(NN=C2CCN(C(C)C)CC2)c([N+](=O)[O-])c1,1.2,-0.93
N#Cc1cc(O)c(-n2nnc3ccccc32)cc1C#N,0.07,1.3
NC(=O)COC(=O)CN1C(=O)C2CCCCC2C1=O (stereo not drawn),1.1,0.73
O=C(c1cc(-c2ccc(Cl)cc2)n[nH]1)N1CCc2ccccc2C1,0.53,-0.04
O=C(Cc1ccccc1)NCC(=O)OCC(=O)c1cccc([N+](=O)[O-])c1,0.52,0.69
CCOCCCNC(=O)/C(C#N)=C/c1cc(OC)c(O)c([N+](=O)[O-])c1,1.8,-0.75
O=C(COc1ccccc1)Nc1c2c(nn1-c1ccccc1)CS(=O)(=O)C2,1.4,-0.65

# Some of the compounds tested, so the mix of outcomes need not match the whole.
